KCNQ2 block: KCNQ2 potassium channel inhibitors, primary screen, cell-based, CHO-K1, FluxOR thallium flux, B-score (AID 2156). 20 min; active compounds read low; only compounds with negative scores are shown here; some inactives read as strong as hits. B-score at 10 µM. 1.1% of 310,000 active;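 active means fluorescence ratio B-score at most minus 3 library SDs, with starting brightness B-score within 2 library SDs, cut at about -5.5 in these data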
Target sequence (O88943 whole entry, looked up): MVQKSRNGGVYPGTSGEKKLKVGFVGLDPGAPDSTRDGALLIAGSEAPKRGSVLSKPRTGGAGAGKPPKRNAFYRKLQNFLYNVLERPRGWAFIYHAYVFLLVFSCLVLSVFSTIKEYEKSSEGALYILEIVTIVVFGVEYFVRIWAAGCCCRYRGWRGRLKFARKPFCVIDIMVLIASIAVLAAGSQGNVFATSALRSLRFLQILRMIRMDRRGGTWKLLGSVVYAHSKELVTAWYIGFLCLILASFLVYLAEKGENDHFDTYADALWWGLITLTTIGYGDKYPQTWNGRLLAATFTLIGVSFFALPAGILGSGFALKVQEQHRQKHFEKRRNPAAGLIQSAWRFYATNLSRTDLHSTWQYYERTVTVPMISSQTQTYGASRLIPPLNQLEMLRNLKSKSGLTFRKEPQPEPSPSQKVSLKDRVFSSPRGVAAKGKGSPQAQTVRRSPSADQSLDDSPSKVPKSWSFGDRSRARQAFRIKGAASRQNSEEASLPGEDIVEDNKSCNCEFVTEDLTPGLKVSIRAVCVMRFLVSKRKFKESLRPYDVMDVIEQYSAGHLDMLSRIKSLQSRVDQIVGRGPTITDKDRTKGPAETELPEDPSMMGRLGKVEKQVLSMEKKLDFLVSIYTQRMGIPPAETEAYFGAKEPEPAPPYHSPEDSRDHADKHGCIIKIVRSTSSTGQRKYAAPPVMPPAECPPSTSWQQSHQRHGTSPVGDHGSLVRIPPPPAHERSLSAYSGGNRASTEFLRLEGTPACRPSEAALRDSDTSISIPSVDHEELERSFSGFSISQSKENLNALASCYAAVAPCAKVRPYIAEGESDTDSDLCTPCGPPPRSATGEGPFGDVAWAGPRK
KCNQ2 block baseline: also measured in KCNQ2 block; calls as there; B-score; measured here: initial fluorescence intensity artifact check;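 brightness before thallium and not channel activity; 0 = typical well and far values either way flag optical interference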
An asterisk follows results filed as active; i = inactive.

Sample of the layout:
smiles	KCNQ2 block	KCNQ2 block baseline
CC(=O)c1cccc(NC(=O)CSc2nnc(-c3ccc(S(=O)(=O)N4CCCC4)cc3)o2)c1	i	2.2
O=C(Nc1ccc(NC(=O)c2cc3ccccc3o2)cc1)c1ccco1	i	0.63

All compounds of this part, repeating the preview:
smiles	KCNQ2 block	KCNQ2 block baseline
CC(=O)c1cccc(NC(=O)CSc2nnc(-c3ccc(S(=O)(=O)N4CCCC4)cc3)o2)c1	i	2.2
O=C(Nc1ccc(NC(=O)c2cc3ccccc3o2)cc1)c1ccco1	i	0.63
N/C(=N\OC(=O)CN1C(=O)c2ccccc2C1=O)c1ccc(Br)cc1	i	0.03
COc1ccccc1NC(=S)N1CCCc2ccccc21	i	-0.36
CCC(C)[C@H](NC(=O)N1CCN(c2cccc(C(F)(F)F)c2)CC1)C(=O)OC (stereo partly specified)	i	-0.22
Nc1nc(CCl)nc(Nc2ccccc2)n1	i	2.1
COc1ccccc1C(=O)NCCn1ccc2ccccc21	i	1.8
COc1ccccc1C(=O)NC(=S)Nc1cccnc1Cl	i	0.27
Cc1nc(-c2ccccc2)nc2n[nH]c(N)c12	i	-0.42
O=C(NN1C(=O)c2ccccc2NC1c1ccc([N+](=O)[O-])o1)c1ccc([N+](=O)[O-])cc1 (stereo unspecified)	i	-1.7

(further entries)
smiles	KCNQ2 block	KCNQ2 block baseline
Cc1cccc(N2CCN(C(=O)CC(NC(=O)c3ccccc3)c3ccccc3)CC2C)c1 (stereo unspecified)	i	-2.4
COc1cc2c(cc1OC)C1=C(C#N)CC/C(=N\S(=O)(=O)c3ccccc3)N1CC2	i	-1
CCCCC(=O)OCC(=O)c1[nH]c(C)c(C(C)=O)c1C	i	0.62
CCOc1ccccc1NS(=O)(=O)c1c[nH]c(C(=O)OC)c1	i	0.01
COc1ccc(Nc2nc(N)c(C(=O)c3ccc(F)cc3)s2)cc1	i	-1.3
Cc1ccccc1NC(=O)c1ccccc1N(C)S(=O)(=O)c1ccccc1	-7.6*	2.5*
CCOC(=O)CC1Sc2ccccc2NC1=S (stereo unspecified)	i	3.7
O=C(Nc1ccccc1O)N1c2ccccc2Sc2ccccc21	i	-0.08
CS(=O)(=O)N(CC(=O)Nc1ccccc1-c1ccccc1)c1ccccc1	i	-0.45
COC(=O)c1ccc(C)c(NC(=O)CN(c2ccccc2)S(=O)(=O)N(C)C)c1	i	1.6

Reprinted from the part before: 5 compounds, followed by the next part.
smiles	KCNQ2 block	KCNQ2 block baseline
Cc1ccccc1NC(=O)c1ccccc1N(C)S(=O)(=O)c1ccccc1	-7.6*	2.5*
CCOC(=O)CC1Sc2ccccc2NC1=S (stereo unspecified)	i	3.7
O=C(Nc1ccccc1O)N1c2ccccc2Sc2ccccc21	i	-0.08
CS(=O)(=O)N(CC(=O)Nc1ccccc1-c1ccccc1)c1ccccc1	i	-0.45
COC(=O)c1ccc(C)c(NC(=O)CN(c2ccccc2)S(=O)(=O)N(C)C)c1	i	1.6
CCCN1CCN(CCCNC(=O)Cn2ncc3c4ccccc4n(C)c3c2=O)CC1	i	0.82
O=C1CC(=C(c2ccccc2)c2ccccc2)C(=O)N1CCCCN1CCN(c2ccccc2)CC1	i	-0.03
Cc1cc(NC(=O)Cn2nc(C)c([N+](=O)[O-])c2C)no1	i	-0.84
Cc1c(NC(=O)C(C)OC(=O)c2nc(Cl)ccc2Cl)c(=O)n(-c2ccccc2)n1C (stereo unspecified)	i	0.02
CCOC(=O)c1c(C)[nH]c(C(=O)N2CCN(C(=O)OCC)CC2)c1C	i	-0.63
CC(NC(=O)C1CCCO1)c1ccccc1 (stereo unspecified)	i	0.07
C#CCOCCOCCOCCNc1nc(N2CCOCC2)nc(N2CCN(C(=O)[C@H](Cc3cc4ccccc4[nH]3)n3cc([C@@H](N)C(C)CC)nn3)CC2)n1 (stereo partly specified)	i	-2.4
Cc1ccn(CCC(=O)N2CCCC(CCC(=O)N3CCN(c4ccccn4)CC3)C2)n1 (stereo unspecified)	i	-0.63
COC(=O)c1cccc(NC(=S)N2CCN(c3ccccc3F)CC2)c1	i	-0.33
COc1ccc2nc(C)cc(SCC(=O)NNC(=O)COc3ccc(C)cc3)c2c1	i	-0.68

Later entries
smiles	KCNQ2 block	KCNQ2 block baseline
O=C(COc1ccc(Cl)cc1)N1CCN(C(=O)c2ccccc2F)CC1	i	-0.84
Nc1ccccc1SC1CC(=O)N(c2ccc3c(c2)OCO3)C1=O (stereo unspecified)	i	-0.38
CCOc1ccc(N(C)C(=O)CCc2nnc3ccc(N4CCCC4)nn23)cc1	i	0.12
CCOC(=O)c1ccc(NC(=S)N(CCN(C)C)Cc2cccs2)cc1	i	-0.44
Cc1cc(OC(=O)c2ccc(C(C)(C)C)cc2)c([N+](=O)[O-])c(=O)[nH]1	i	1.5
COc1cc(C(=O)Cc2nc3ccccc3n2C)cc(OC)c1OC	i	-0.63
CCCCNC(=S)N(C)/N=C/c1ccc2c(c1)OCO2	i	-0.5
CCCOc1c(Cl)cc(C(=O)NC)cc1OC	i	2.1
COCCCN1C(=O)C(=O)/C(=C(/O)c2ccc(S(=O)(=O)N3CCCCC3)cc2)C1c1ccc(O)c(OC)c1 (stereo unspecified)	i	-1.3
CCOC(=O)c1[nH]c(C)c(C(=O)OCC(=O)N2CC(=O)Nc3ccccc32)c1C	i	0.55

Remaining list, next part
smiles	KCNQ2 block	KCNQ2 block baseline
Cc1n[nH]c(C)c1Sc1ccccc1N	i	-0.03
COc1ccccc1C(=O)NC(=O)COC(=O)c1ccc([N+](=O)[O-])cc1	i	3.2
COc1cccc(C2=NOC(C(=O)NCc3ccc(F)cc3)C2)c1 (stereo unspecified)	i	1.1
Brc1ccc(N=Cc2ccccn2)cc1	i	0.48
CCn1c(-c2ccc(F)cc2)cnc1SCC(=O)N1CCc2ccccc21	i	0.98
CC(C)c1ncc(C(O)c2cccc3ccccc23)n1C (stereo unspecified)	i	0.28
COCc1ccc(O)c2ncccc12	i	-1.1
CCC1=C(OC(=O)N(CC)CC)N2C(=O)OC(=NCCc3c[nH]c4ccccc34)[C@]2(Cc2ccccc2)[C@H]2C1=CC[C@H]1C(=O)N(CC)C(=O)[C@H]12	i	-0.35
CC(=O)c1ccc(N2C(=NC(=O)COc3ccccc3)SC3CS(=O)(=O)CC32)cc1 (stereo unspecified)	i	-1
CCn1c(SC)nnc1C1CCCN(CC(=O)Nc2ccccc2N2CCOCC2)C1 (stereo unspecified)	i	-0.1

(cont.)
smiles	KCNQ2 block	KCNQ2 block baseline
CCOc1ccc(CCNC(=O)CN2CCN(Cc3ccccc3F)C2=O)cc1OCC	i	-0.09
CC1Cc2ccccc2N1C(=O)/C=C/c1cccc(F)c1 (stereo unspecified)	i	-0.61
Cc1ccccc1S(=O)(=O)Cc1ccc(C(=O)NC(C)c2ccccc2)o1 (stereo unspecified)	i	1.6
COc1ccc(-n2c(SCC(=O)Nc3nc(C)cs3)nnc2-c2ccoc2C)cc1	i	-1.7
CCCCCCn1c(N2CCN(c3cccc(Cl)c3)CC2)nc2c1c(=O)[nH]c(=O)n2C	i	-0.38
CN(CCNC(=O)c1cn(C)c2ccc(S(=O)(=O)N3CCCC3)cc2c1=O)CCc1ccccc1	i	-0.68
CC(=O)N(c1cccc(Cl)c1)c1nc(C)cc(C)c1C#N	i	0.07
COc1ccccc1-c1ccc(=O)n(CC(=O)NC2CCc3ccccc32)n1 (stereo unspecified)	i	2.4
COc1ccc(CNC(=O)c2ccc(Br)o2)cc1	i	0.01
COc1ccc(C)cc1NC(=O)CN(C)S(=O)(=O)c1cnc[nH]1	i	1.7

Following part:
smiles	KCNQ2 block	KCNQ2 block baseline
CCN1CCCC1CNC(=O)Cn1ncc2c(=O)oc3ccc(C)cc3c21 (stereo unspecified)	i	0.89
COc1ccccc1NC(=O)/C=C\c1ccco1	i	0.81
O=C(NCCc1ccccc1)C1CC(=O)N(c2ccc3c(c2)OCCO3)C1 (stereo unspecified)	i	0.29
O=C(Nc1ccccc1F)Nc1cccc2ccc(O)cc12	i	-1.2
CO/N=C(\Cn1ncc(N2CCCC2)c(Br)c1=O)c1ccc(Cl)cc1	i	0.83
CC(Oc1ccccc1F)C(=O)/C=C/N(C)C (stereo unspecified)	i	-0.08
COc1ccc(C2C(=O)N(C3CCCCC3)CC(=O)N2C2CCCCC2)cc1 (stereo unspecified)	i	-0.26
CCc1ccc2oc(C(=O)NC3CCS(=O)(=O)C3)cc(=O)c2c1 (stereo unspecified)	i	-0.86
O=c1[nH]c(C2CCN(S(=O)(=O)c3ccccc3F)CC2)nc2c1nnn2Cc1ccc(F)cc1	i	-0.38
CCOc1ccc(NC(=O)Cn2nnc(-c3ccccc3F)n2)cc1	i	0.18

Following part
smiles	KCNQ2 block	KCNQ2 block baseline
COCCn1cnc2c(c1=O)c1nc3ccccc3nc1n2/N=C/c1cccc(OC)c1	i	-0.77
O=S1(=O)CCC(n2nccc2-c2ccccc2)C1 (stereo unspecified)	i	-1.2
CCOc1ccc(NC(=O)CSc2nc(O)c(C)c(=O)n2-c2ccc(F)cc2)cc1	i	1.7
Cc1csc(NC(=O)CCn2c(=O)oc3ccc(Cl)cc32)n1	i	-2.3
O=C(CSc1nc2ccccc2o1)NCC(=O)c1ccccc1	i	-0.69
CC(C)OC(=O)CN1C(=O)S/C(=C/c2ccc(N3CCCCC3)o2)C1=O	i	1
Cc1ccc(Oc2ncc(CN3CC(C)OC(C)C3)s2)cc1 (stereo unspecified)	i	0.02
CC(C)CSc1nc2ccccc2n1CC(N)=O	i	-0.04
O=C(CSc1nc2[nH]ncc2c(=O)n1-c1ccccc1Cl)N1CCCC1	i	-0.59
COCCNC(=O)C(OC(=O)c1ccco1)c1ccccc1F (stereo unspecified)	i	-0.04

Next section.
smiles	KCNQ2 block	KCNQ2 block baseline
COC(=O)CCCC(=O)N1CCCC(CNS(=O)(=O)c2ccc(OC)cc2)C1 (stereo unspecified)	i	-0.66
CC(C)(C)N(Cc1nc(-c2ccccc2)no1)C(=O)c1ccc2c(c1)OCO2	i	1.1
CCn1c(SCC(=O)Nc2oc(-c3ccccc3)c(-c3ccccc3)c2C#N)nnc1-c1cc(OC)cc(OC)c1	i	-0.01
O=C(CC1OC(=O)c2ccccc21)NCC1COc2ccccc2O1 (stereo unspecified)	i	-0.13
CC(=O)N1N=C(c2cccc(Br)c2)OC12CCCC2	i	-1
COCCCNC(=O)c1ccc(N2CCCC2)c(NS(=O)(=O)c2ccc(C)cc2)c1	i	-0.02
O=C(O)CCC(=O)c1ccc2c(c1)OCCO2	i	1.8
O=C(O)c1cccc(NC(=S)NC(=O)c2ccncc2)c1	i	2.2
COc1ccccc1NC(=O)CCSc1nnc(-c2ccco2)o1	i	0.64
C=CCNc1cnn(-c2ccc(C)cc2)c(=O)c1Sc1ccc(C)cc1	i	0.39

The list goes on.
smiles	KCNQ2 block	KCNQ2 block baseline
Cc1ccc(C)c(S(=O)(=O)N2CCCC2CNC(=O)C(=O)NCCc2ccccc2)c1 (stereo unspecified)	i	-2.4
CCCC(c1nnnn1CC(=O)OCC)N(Cc1cc2ccc(C)cc2[nH]c1=O)C1CCCC1 (stereo unspecified)	i	-0.57
CN(C1CCCCC1)S(=O)(=O)c1ccc(NC(=S)NC(=O)c2cccs2)cc1	i	-0.65
CC(=O)N(C)c1ccc(N=Cc2c(O)ccc3ccccc23)cc1	i	-1.3
O=C(CSc1nc2scc(-c3ccccc3)c2c(=O)[nH]1)N1CCOCC1	i	-1.4
C[C@H](CCC(=O)NCC(=O)O)[C@H]1CC[C@H]2[C@@H]3[C@H](O)C[C@@H]4C[C@H](O)CC[C@]4(C)[C@H]3C[C@H](O)[C@]12C	i	-0.75
CCOc1cccc2cc(C(=O)Nc3ccccc3-c3ccccc3)c(=O)oc12	i	-1.6
COc1ccc(N(CC(=O)NCc2ccccc2OC)S(=O)(=O)c2ccccc2)cc1	i	1.3
O=C(Nc1ccccc1Br)c1cccc2ccccc12	i	-0.8
O=c1[nH]cnc2c1nc(NCc1ccccc1)n2C1O[C@@H](CO)[C@H](O)[C@@H]1O (stereo partly specified)	i	-0.02

Reformatted with the structure last: entries from further up
KCNQ2 block,KCNQ2 block baseline,Molecule
i,-1.6,CCOc1cccc2cc(C(=O)Nc3ccccc3-c3ccccc3)c(=O)oc12
i,-1.3,CC(=O)N(C)c1ccc(N=Cc2c(O)ccc3ccccc23)cc1
i,-1.4,O=C(CSc1nc2scc(-c3ccccc3)c2c(=O)[nH]1)N1CCOCC1

Continued.
smiles	KCNQ2 block	KCNQ2 block baseline
Cc1nc2ccc(C(=O)Nc3ccccc3Cl)cc2s1	i	-1.5
COc1cccc(NC(=O)CN(C)CC(=O)Nc2cccc(C(F)(F)F)c2)c1	i	-1.6
Cc1c(Cl)cccc1N(CC(=O)N1CCCCCC1)S(C)(=O)=O	i	0.52
O=C(CSc1ncnc2scc(-c3ccc(F)cc3)c12)c1ccc2c(c1)OCCO2	i	-1.5
Cc1cccnc1NC(=O)c1ccc(S(=O)(=O)N2CCCCC2)cc1	i	2.5
O=C(NCC(c1cccnc1)N1CCN(c2ccccc2)CC1)C1CCCCC1 (stereo unspecified)	i	1.1
CN1CCN(c2ccc(Cl)cc2NC(=O)/C=C/c2cccc(F)c2)CC1	-6.5*	2.9*
O=c1c2ccccc2[nH]c2ccc(O)cc12	i	1.7
Cc1ccccc1OCCCC(=O)Nc1ccc(Br)cc1	i	0.1
COC(=O)C(CC(C(=O)OC)C(=O)OC)C(=O)OC	i	1.6
CCc1cccc(C)c1N=Cc1c(O)c2ccccc2oc1=O	i	-1.2
N=c1n(CCO)c2ccccc2n1CCOc1ccc(Cl)cc1Cl	i	0.19
CCc1cccc(N=c2c([N+](=O)[O-])nn(-c3ccc(Cl)cc3)n2O)c1	i	-1.6

An excerpt. The share of hits here may be higher or lower than overall.
